HNF4A DNA FP: change in binding of human HNF4A to DNA, primary screen, biochemical, fluorescence polarization, FITC-DNA; 1 h; activity change, % at 10 µM; 360,000 compounds, 0.3% hits; AID 1224865, 2016; in the data active means activity change above about 30%, passing the limit was not always enough;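 further: controls were the assay level and a saturating level of protein; the project sought stronger binding though the title names inhibitors; some compounds called inactive have numbers as strong as hits; positive values seem to mean higher polarization but the record does not say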
Target sequence (P41235 whole entry, looked up): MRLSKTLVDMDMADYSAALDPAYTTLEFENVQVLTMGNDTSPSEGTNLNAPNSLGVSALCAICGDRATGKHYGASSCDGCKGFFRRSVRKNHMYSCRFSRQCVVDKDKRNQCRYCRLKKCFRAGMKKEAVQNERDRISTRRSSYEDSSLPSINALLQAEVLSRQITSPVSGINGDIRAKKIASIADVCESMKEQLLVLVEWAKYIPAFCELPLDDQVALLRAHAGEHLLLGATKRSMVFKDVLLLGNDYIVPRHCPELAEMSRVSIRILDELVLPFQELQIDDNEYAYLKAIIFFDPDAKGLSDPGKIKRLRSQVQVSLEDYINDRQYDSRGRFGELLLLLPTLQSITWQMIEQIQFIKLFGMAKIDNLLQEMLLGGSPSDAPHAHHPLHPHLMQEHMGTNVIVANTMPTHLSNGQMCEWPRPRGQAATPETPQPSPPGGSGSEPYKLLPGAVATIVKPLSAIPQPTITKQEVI
A1 inh: caspase 3/7 activation in MEF A1-2A-BIM cells, primary screen, A1 inhibitor project, cell-based, luminescence, HTS. Caspase-Glo 3/7 luminescence, 3 h; percent of clofoctol response, vehicle zero. caspase activation, % (test concentration not listed). 330,000 compounds, 0.066% hits. AID 2462, 2010;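 active means over half of replicate activation scores above 10%, or exactly half above 10 with the replicate mean above 10; inconclusive means replicate mean below 10 yet half the replicates above 10; inactive means over half of replicates below 10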;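 further: wells of about 30 µL received 50 nL stock; many hits fall short of the cut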
B2AR ag: beta2AR agonists driving receptor internalization, primary screen, cell-based, FAP fluorogen, flow cytometry; Beta-2 adrenergic receptor (Homo sapiens), P07550; Am2.2-beta2AR cells; reference of the scale not given here; response, % (test concentration not listed); 340,000 compounds, 0.43% hits; AID 504454, 2011;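 active means response above a set limit, near 3 SD of response in nonfluorescent compounds, cut at about 42% in these data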;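 further: stock transfer was 100 nL into about 11 µL; a reference agonist was the positive control; negative values mostly stem from fluorescent compounds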
Vif TR-FRET: inhibitors of Vif binding to APOBEC3G peptide, primary screen, biochemical, TR-FRET, GST-Vif 1-94, biotin-A3G peptide, dose response retest (AID 1117319); TR-FRET GST-Vif / biotin-A3G peptide binding; higher % means a stronger effect; test concentration not given here; strong numbers were not always called active; one-dose inhibition, %; IC50 in µM for titrated hits; 260,000 compounds, 0.57% hits;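 active means above the screen mean plus three standard deviations and confirmed in dose response; inconclusive means results disagree or hit not tested in dose response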;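 further: Vif residues 1-94 fused to GST binding biotinylated APOBEC3G peptide 110-148; 0% = full assay without inhibitor and 100% = GST in place of GST-Vif; retest series ran down from 100 µM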
LANA-H2B inh: blockers of LANA interaction with H2A/H2B – biochemical, FP readout, HTS, primary screen; cell-free LANA-H2A/H2B peptide, fluorescence polarization; Protein LANA1 (Human herpesvirus 8 type P (isolate GK18)), Q9QR71; AID 2629, 2010; inhibition, % (no concentration beside the values); 320,000 compounds, 0.6% hits; in the data active means inhibition mostly above about 10%, no sharp cut-off; inactive means mostly below about 6.7%;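 further: stock transfer was 7.5 nL into about 10 µL; 0% = median of vehicle wells and 100% = median of positive control wells; one replicate is shown; the record names a cut of 25% in any replicate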
E coli growth: E. coli growth inhibition, primary screen, OD600 | Escherichia coli growth, 23 h; stronger effect = lower value | OD600 absorbance (test concentration not listed) | 330,000 compounds, 0.21% hits | AID 1053175, 2014;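 active means OD600 absorbance below the run mean of sample wells minus 3.6 SD, in any replicate, cut at about 0.56 in these data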;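 further: stock transfer was 300 nL into about 60 µL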
UCH37 inh: inhibitors of human UCH37 deubiquitinase, primary screen, biochemical, Ub-AMC cleavage, fluorescence; inhibition, % (concentration not given with the values); Ubiquitin carboxyl-terminal hydrolase isozyme L5 (Homo sapiens), Q9Y5K5; purified proteasome/UCH37; 330,000 compounds, 0.33% hits;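 active means mean of two replicates above 20%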;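 further: 0% = compound-free wells with enzyme and 100% = wells lacking proteasome; stock transfer was 100 nL into about 20 µL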
Target sequence (Q9Y5K5 whole entry, looked up): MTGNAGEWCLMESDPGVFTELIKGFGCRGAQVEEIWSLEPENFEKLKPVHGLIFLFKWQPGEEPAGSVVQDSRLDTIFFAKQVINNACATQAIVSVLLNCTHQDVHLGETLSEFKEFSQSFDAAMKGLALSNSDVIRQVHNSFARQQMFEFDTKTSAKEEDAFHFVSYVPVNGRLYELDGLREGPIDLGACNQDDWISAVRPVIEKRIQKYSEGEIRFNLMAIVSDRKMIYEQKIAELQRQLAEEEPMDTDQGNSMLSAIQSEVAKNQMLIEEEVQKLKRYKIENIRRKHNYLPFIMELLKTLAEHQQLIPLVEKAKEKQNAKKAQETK
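assay system = human UCH37 enzyme supplied as purified proteasome complex | amount = proteasome at 0.15 nM in the dispensed enzyme solution | schedule = 30 min compound-proteasome preincubation then 25 min substrate reaction, room temperature | measured by = fluorescence, ex 355 nm, em 460 nm | benchmarks = no-proteasome wells (full inhibition) and compound-free wells (no inhibition)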
* marks the source's active call; other numbers are inactive results; ? = inconclusive; nt = not tested or not shown; & = joins results of further samples.

SMILES	HNF4A DNA FP	A1 inh	B2AR ag	Vif TR-FRET	LANA-H2B inh	E coli growth	UCH37 inh
CC1(C)OC(=O)N(CCC(=O)Nc2cccc(F)c2)C1(C)O (stereo not drawn)	-0.8	0.8	-0.6	-6.5%	-3.5	0.682	1.7
N=C1C(c2ccccc2)=C(O)CN1NC(=O)c1ccccc1	0.1	0.9	-337.4	?	-0.5	0.712	6.1
COc1cccc(CN(C)C(=O)CCC(=O)c2cc(Br)ccc2OC)c1	4.7	0.5	4.1	nt	-5.1	0.721	-2.2
CN(C)CCC1c2ccc(Cl)cc2CCc2cccnc21 (stereo not drawn) (tested in a mixture with another compound)	-1.1	0.1	-5.6	nt	0.5	nt	nt
CN(CC(=O)Nc1cccc(F)c1)C(=O)c1cc([N+](=O)[O-])ccc1N1CCCCC1	-1.1	-0.4	0.9	-2.8%	-3.0	0.661	7.0
CSCCC(NC(=O)c1ccccc1C)C(=O)O (stereo not drawn)	6.9	-0.3	0.2	-4.5%	4.7	0.668	1.3
CC(C)(C)c1ccc(-c2ccc3c(c2)S(=O)(=O)c2ccccc2C3=O)cc1	-1.5	0.1	13.2	nt	-2.4	0.781	5.4
CC1(C(=O)O)COC(c2ccc(Cl)cc2)OC1 (stereo not drawn)	1.8	0.8	-0.3	21.3%	1.1	0.666	4.8
COCCn1c(SC(C)C(=O)NC2CCCCC2C)nc2ccccc2c1=O (stereo not drawn)	1.4	-0.7	-0.5	-0.3%	0.1	0.708	2.9
C=C(C)Cn1c(=O)c2c(nc3n2CCCN3Cc2ccccc2)n(C)c1=O	1.1	0.1	-6.0	-4.7%	-1.9	0.665	2.0
O=C(COC(=O)/C=C/c1cccs1)Nc1cccc(S(=O)(=O)N2CCOCC2)c1	2.3	1.3	0.2	26.2%	nt	0.695	5.1
C/C(=C\c1ccccc1F)C(=O)c1c(C)cc(C)[nH]c1=O	0.4	1.2	-3.1	2.6%	-1.8	0.645	2.8
c1ccc(Nc2nc(N3CCCCC3)nc(N3CCCCC3)n2)cc1	-1.6	0.8	-1.4	0.8%	1.0	0.691	2.5
O=C(N/N=C/c1cc2c(cc1[N+](=O)[O-])OCO2)c1ccc2c(c1)OCO2	-2.3	0.4	3.6	nt	-1.4	nt	nt
Cc1ccc(N=C2NC(=O)/C(=C/c3cccnc3)S2)c(C)c1	-6.5	0.2	6.9	-3.9%	-5.6	0.656	5.4
CC(=O)Nc1sc(C)c(C)c1C(=O)OCC(=O)NCc1ccc(Cl)cc1	0.4	-0.4	8.1	nt	3.1	0.67	3.3
O=S(=O)(Nc1ccc(N2CCOCC2)cc1)c1ccc(F)cc1	-0.6	0.7	-3.7	23.0%	3.5	0.679	0.3
Cc1noc(C)c1C(=O)OCC(=O)Nc1ccccc1Oc1ccccc1	-9.4	0.4	-23.0	-4.1%	-6.8	0.651	2.3
COc1cc(C(=O)N2CCN(Cc3ccc4c(c3)OCO4)CC2)c([N+](=O)[O-])cc1OC	3.3	0.3	0.4	nt	-6.9	0.665	4.0
CCOC(=O)CNC(=S)N(Cc1ccc(C)cc1)Cc1ccc(C)o1	-3.8	-0.2	12.5	nt	-2.4	0.676	0.8
Cc1cccc(NC(=O)c2cc(NC(=O)C3CCCCC3C(=O)O)ccc2N2CCCCC2)c1 (stereo not drawn)	3.6	-0.8	3.3	20.6%	-1.9	0.734	-5.0
CCOc1ccc(/C=c2\sc3nc(-c4ccco4)nn3c2=O)cc1OCC	-14.7	0.8	2.3	-2.1%&6.3%	2.7	nt	nt
CCN(CC)S(=O)(=O)c1cc(NS(=O)(=O)c2c(Cl)cccc2Cl)ccc1C	0.4	0.2	6.5	nt	-0.5	0.686	-10.5
COc1cccc(-c2nnc(SCC(=O)Nc3ccc4c(c3)OCCO4)n2Cc2ccco2)c1	1.3	-0.8	-4.0	1.5%	-9.0	0.67	0.4
Cc1cc(C)nc(SCC(=O)c2ccc(F)cc2)n1	-0.5	-1.0	-5.7	-0.8%	0.6	0.695	6.2
CNc1nc(-c2ccc3c(c2)CCN3C(=O)CC(C)(C)C)c(C)s1	-0.7	0.5	3.9	-3.2%	1.6	0.65	0.6
Cc1cc2c3ccccc3ncn2n1	-0.8	0.2	-5.0	-2.6%	-3.6	0.624	-0.5
CC(=O)c1cccc(OCC(=O)NC2CCCCCC2)c1	0.0	nt	-9.7	-1.5%	nt	0.695	1.7
NS(=O)(=O)c1cc(C(=O)OCC(=O)Nc2ccc(N3CCCCC3)cc2)ccc1Cl	-0.9	1.6	-8.1	nt	-0.7	0.701	4.7
CN(C(=O)Nc1ccc(S(=O)(=O)N(C)C)cc1)C1CCCCC1	-3.8	1.3	-7.0	29.2%	-0.2	0.739	3.7
Cc1nn(CC(=O)OCC(=O)NC(C)c2ccccc2)c(C)c1[N+](=O)[O-] (stereo not drawn)	-2.6	0.0	10.9	2.9%	-3.6	0.673	1.3
CCOCCCNCc1ccc(Cl)cc1	2.0	0.8	-0.1	nt	1.2	nt	nt
COC(=O)COc1ccc(/C=N/NC(=O)CN(c2ccccc2OC)S(=O)(=O)c2ccccc2)cc1	8.0	2.2	24.0	nt	0.4	nt	nt
CC(=O)Nc1ccc(S(=O)(=O)NCCC(=O)OCc2ccccc2F)cc1	2.2	1.1	-8.4	-10.5%	-0.5	0.701	2.7
O=C(Nc1ccccc1C(=O)O)/C(=C/c1ccc([N+](=O)[O-])cc1)NC(=O)c1ccc(Br)o1	-4.2	0.7	-5.3	4.4%	-4.3	0.729	15.6
CC(C)N1CCN(S(=O)(=O)c2ccccc2)CC1	3.4	-2.6	0.4	4.9%	0.0	0.678	1.4
O=C(NNC(=O)c1cccc(C(F)(F)F)c1)c1ccncc1	-0.9	-0.8	-9.2	1.7%	0.8	0.656	2.3
CCCCn1c(N)c(N(CC)C(=O)CSCC(=O)Nc2ccc(OC)cc2)c(=O)[nH]c1=O	2.1	0.5	0.4	nt	-3.4	nt	nt
CC1OC(Oc2ccc3ccc(=O)oc3c2-c2c(O)ccc3cc(Oc4ccc5ccc(=O)oc5c4)c(=O)oc23)C(O)C(O)C1O (stereo not drawn)	0.7	-0.1	9.0	9.2%	2.8	0.71	2.0
Cc1ccc(CS(=O)(=O)Cc2ccc(C(=O)NCc3cccs3)o2)cc1	4.0	0.5	-2.2	nt	3.7	0.722	-5.6

Part of the list above, with bars between the fields:
Compound | HNF4A DNA FP | A1 inh | B2AR ag | Vif TR-FRET | LANA-H2B inh | E coli growth | UCH37 inh
CC(=O)Nc1ccc(S(=O)(=O)NCCC(=O)OCc2ccccc2F)cc1 | 2.2 | 1.1 | -8.4 | -10.5% | -0.5 | 0.701 | 2.7
O=C(Nc1ccccc1C(=O)O)/C(=C/c1ccc([N+](=O)[O-])cc1)NC(=O)c1ccc(Br)o1 | -4.2 | 0.7 | -5.3 | 4.4% | -4.3 | 0.729 | 15.6
CC(C)N1CCN(S(=O)(=O)c2ccccc2)CC1 | 3.4 | -2.6 | 0.4 | 4.9% | 0.0 | 0.678 | 1.4

New compounds follow:
SMILES	HNF4A DNA FP	A1 inh	B2AR ag	Vif TR-FRET	LANA-H2B inh	E coli growth	UCH37 inh
CCC(CO)Oc1cc(NCc2ccccc2C(F)(F)F)c2ncn(C(C)C)c2c1 (stereo not drawn)	-1.8	0.0	0.0	nt	-1.6	0.71	1.5
CC(=O)Nc1sc2c(c1-c1nc3ccccc3s1)CCN(C(C)C)C2	-5.5	?	-122.6	-11.9%	-6.4	0.689	-14.0
CCCSc1nc(C)c2cc(C)cc(C)c2n1	0.6	-0.6	-6.0	-4.8%	-0.9	0.699	-1.3
OCC#CCSc1nnc(-c2ccc(Br)cc2)o1	3.1	0.3	-1.1	5.0%	1.2	0.648	-0.8
COc1ccc(CC(=O)Nc2cccc(/C(C)=N/NC(=O)c3cccc([N+](=O)[O-])c3)c2)cc1	1.3	1.0	1.4	18.6%	-5.7	nt	nt
CC(=O)c1cccc(NC(=O)CSc2nnc(C(C)N(C)C)n2Cc2ccccc2)c1 (stereo not drawn)	1.4	0.3	-7.1	nt	2.7	0.692	4.9
CCN(c1cccc(C(F)(F)F)c1)S(=O)(=O)c1ccc2c(c1)CCN2C(=O)C1CC1	1.3	-0.8	1.6	2.5%	1.4	0.707	3.7
O=C(N/N=C/c1ccc(OC(=O)c2cccc(F)c2)cc1)c1cccnc1	-2.9	-3.6	-1.0	nt	1.0	nt	nt
CC(=O)C1=C(c2ccccc2)NC(=O)NC1c1ccccc1OCC(=O)Nc1ccccc1 (stereo not drawn)	2.1	0.4	-0.1	-2.5%	3.6	0.73	3.4
O=C(CC(c1ccccc1)c1cc(Br)ccc1O)N1CCCC1 (stereo not drawn)	-0.2	0.5	-2.8	12.2%	0.3	0.693	0.4
C=CCn1c(=O)c(C(=O)Nc2cccnc2)c(O)c2ccccc21	0.6	0.3	3.2	2.4%	-4.0	0.748	-0.4
COc1ccc(C(=S)NC2CCCCC2)cc1	0.6	-1.0	11.0	-3.6%	-2.1	0.72	2.2
CC(=O)c1ccc(OC(=O)C2CSC3(C)CCC(=O)N23)cc1 (stereo not drawn)	-2.9	-0.2	-0.9	6.7%	-0.9	0.652	2.2
COc1ccc(CCN2C(=NC(=O)CC(C)C)SC3CS(=O)(=O)CC32)cc1OC (stereo not drawn)	-3.6	0.6	-1.2	3.9%	22.1*	0.631	6.6
CC1CC(C)CN(CCCNC(=O)Cn2ncc3c([nH]c4ccccc43)c2=O)C1 (stereo not drawn)	-2.2	1.2	1.3	nt	-3.9	0.71	-2.7
Cc1ccc(-n2cnc(=O)c3cccnc32)cc1	-1.9	-0.1	5.6	-3.8%	5.4	0.725	-1.7
COc1ccc(C(=O)/C=C/Sc2nc3ccccc3o2)cc1	0.5	-0.5	26.8	nt	3.5	nt	nt
CC(C)n1c(N2CCN(CC(=O)NCc3cccs3)CC2)nc2ccccc21	-0.2	-0.6	-1.7	4.3%	0.7	0.702	2.1
CC(C)OC(=O)n1c(=S)oc2ccccc21	2.8	0.2	5.3	-0.1%	0.8	0.692	2.3
CC(C)N(C(=O)CSc1nc(Cc2ccccc2)nc2ccccc12)C(C)C	1.2	0.4	-1.3	nt	-2.1	0.71	0.6
NCCc1nnc(SCc2ccccc2Cl)o1	2.9	0.6	-3.7	-4.8%	-10.2	0.669	3.5
CCN(CC)S(=O)(=O)c1cccc(C(=O)OCC(=O)C23CC4CC(CC(C4)C2)C3)c1	-4.0	1.2	9.9	-8.9%	-4.9	0.706	3.8
O=C(CSc1c(Cl)cccc1Cl)NC1CCCc2ccccc21 (stereo not drawn)	0.9	0.1	-0.3	nt	nt	nt	-0.8
CC1CC(C)CN(C(=O)C(NS(=O)(=O)c2ccc(Br)s2)c2ccccc2)C1 (stereo not drawn)	-0.5	0.1	10.1	3.5%	-2.9	0.689	3.9
N#Cc1cccnc1Oc1ccccc1	-2.8	-0.8	-2.2	-5.1%	-1.9	0.684	4.2
COc1cc2[nH]c(C(=O)N3CCc4ccccc4C3)cc2c(OC)c1OC	1.7	-1.2	5.9	nt	-6.2	0.659	-2.5
O=C(NCc1ccccc1)c1ccc(NC(=O)C2CCCC2)cc1	1.4	nt	0.1	-5.1%	nt	nt	nt
COc1ccc(C(=O)N2CCN(c3ccc(C)cc3)CC2)cc1OC	1.2	-0.1	10.4	4.4%	8.4	0.723	1.2

Hits appear at their usual frequency; about 2.1% have a hit in one of these screens.
